# VACV Venus inh = inhibitors of vaccinia virus (Venus reporter). Vaccinia virus Venus reporter expression, fluorescence. Potency, µM (series often up to 36.5 µM), for inactives: at the top dose activity change, negative = inhibition, actives largely listed as inhibitors. 330,000 compounds, 0.46% hits. AID 720580; active means well fitted inhibition curve with a large enough effect; inconclusive means small, poorly fitted or top-dose-only effect; inactive means no such curve, though single readings can be large or run the other way; tested in A549 cells; also: nearly all actives have a fitted effect of over 30% in size; inactives centre near -10
# Vaccinia mCherry = vaccinia inhibition (mCherry reporter) | Vaccinia virus mCherry reporter infection, fluorescence; about a quarter of the inactives have no number | Potency, µM (doses to about 36.5 µM), inactives show at the highest dose activity change, negative = inhibition, usual class: inhibitors | 310,000 compounds, 0.63% hits; active = well fitted inhibition curve with a large enough effect; inconclusive = small, poorly fitted or top-dose-only effect; inactive = no such curve, though single readings can be large or run the other way; tested in A549 cells; also: nearly all actives have a fitted effect of over 35% in size; inactives centre near -10
# * = called active by the depositor; i = inactive; ? = inconclusive; / = not tested or not shown; [ ] = another dose, or the depositor's remark. % is scaled to controls: 0 for no effect and ±100 for the full control effect; potency is read from the fitted curve at half-maximal effect.
SMILES,VACV Venus inh,Vaccinia mCherry
O=C(NCc1nc2ccccc2[nH]1)c1ccc(S(=O)(=O)N2CCOCC2)cc1,-1%,/
CCC(=O)c1ccc(OCC(=O)OCC(=O)c2cc(C)n(C)c2C)cc1,-16%,-2%
CCOc1ccc(NC(=O)CN2C(=O)CCSc3ccc(S(=O)(=O)N4CCCC4)cc32)cc1,-6%[7.34 µM],-5%[7.34 µM]
O=C(CNC(=O)c1ccccc1Br)N/N=C/c1ccc(O)cc1,2%,3%
C=CCn1c(COc2cccc(C)c2)nnc1SCn1nnc2ccccc2c1=O,-9%,-20%
CC(O)CNCCCOc1cccc(Oc2ccccc2)c1 (centres undefined),-10%,?
CC1(C)C[C@H]2C=C(C=O)[C@]3(C=O)C[C@]3(C)[C@H]2C1,?,?
Cc1cccc(C)c1N1C(=O)c2ccccc2NC(=O)C1C(=O)NCCc1ccccc1F (centres undefined),2%,-16%
Cc1cc(C)n(C(=O)COc2c(C)cccc2C)n1,-9%,-10%
Cc1onc(-c2c(F)cccc2Cl)c1C(=O)Nc1cc2cc([N+](=O)[O-])ccc2oc1=O,-4%,13%
CC1CCn2c(nc3cc(C(=O)NCc4ccccc4)ccc32)C1 (centres undefined),-15%[7.34 µM],-20%[7.34 µM]
O=C(Nc1ccccc1Cl)c1sccc1-c1ccccc1,-4%,-8%
O=c1[nH]c(=S)n(-c2ccccc2)c(O)c1/C=N/N1CCCCC1c1cccnc1 (centres undefined),30%,-16%
CN1C2C(Br)CCCCN2c2ccc(F)cc2S1(=O)=O (centres undefined),-6%,-13%
C/C(=N/NC(=O)CN1CCN(Cc2ccccc2Cl)CC1)c1ccco1,0%,-24%
O=S(CC(O)c1ccccc1)c1ccccc1 (centres undefined),5%,i
N#C/C(=C\c1ccc(OCc2ccc(Cl)cc2Cl)cc1)c1nc2ccccc2[nH]1,-13%,-7%
CC(=O)Nc1ccc(NC(=O)c2sc3nc4c(c(-c5ccc(C)cc5)c3c2N)CCC4)cc1,?,?
CCOC(=O)c1cc(S(=O)(=O)N2CCN(c3ccccc3OC)CC2)[nH]n1,-16%,-17%
C[C@@H]1C[C@@H](CC(=O)NCC2Cc3cccc(-c4ccncc4)c3O2)NC(=S)N1 (some centres undefined),-26%,i
CCOC(=O)c1c(N)n(-c2ccc(C)c(C)c2)c2nc3ccccc3nc12,6%,-13%
CNCCCOc1cccc(OC(C)C)c1,-2%,-11%
COCc1ccc(C(=O)NC2CC(C)(C)Cc3c2cnn3-c2ccc(C)cc2)o1 (centres undefined),-24%,-26%
COC(=O)[C@]1(C)N[C@H](c2ccc(-c3ccc(Cl)c(Cl)c3)c(OC)c2)[C@@H]2C(=O)N(C)C(=O)[C@@H]21,?,?
Cc1cn([C@H]2C[C@H](O)[C@@H](CNCc3ccc(CN(C)S(C)(=O)=O)o3)O2)c(=O)[nH]c1=O,-2%,i
Cc1ccc(NC(=O)CSC2=C(C#N)C(c3ccco3)C3=C(CCCC3=O)N2)cc1 (centres undefined),7%,11%
CCCCCOC(=O)C1=C(C)Nc2nnnn2C1c1ccccc1Cl (centres undefined),?,?
COc1ccc(NC(=O)C(CC(=O)O)Cc2ccc(Br)cc2)cc1 (centres undefined),-11%,i
COc1ccc(NC(=O)NNC(=O)c2ccc3ccccc3c2)cc1OC,-7%,11%
CN1CCC(O)(c2ccccc2)C(C(=O)c2ccccc2)C1 (centres undefined),5%,-3%
CN(Cc1nc(-c2ccncc2)no1)S(=O)(=O)c1ccc(Cl)cc1,-11%,-25%
O=C(O)c1ccc(CNc2ccccc2C(=O)O)cc1,-4%,-5%
CCN(c1ccc(Cl)cc1)S(=O)(=O)c1nnc(NC(=O)c2ccco2)s1,-4%,-5%
Nc1c(-c2ccc(Cl)cc2)cnn1-c1cccc(C(F)(F)F)c1,-17%,/
CCC(=O)N1CC(=O)Nc2ccc(Cl)cc2C1c1ccc(F)cc1 (centres undefined),-14%,-24%
Nc1nc2ccccc2n1S(=O)(=O)c1ccccc1,-12%,i
COC(=O)C1=C(c2ccc3ccccc3c2)C[C@@H]2CC[C@H]1N2C(=O)NC(C)C,-11%,-6%
COc1ccc2nc(Cl)c(C=O)c(N3CCOCC3)c2c1,-14%,-5%
O=C(Nc1ccc(N2CCOCC2)cc1N1CCOCC1)c1ccc(Cl)cc1,-3%,-16%
CC(/C=N/NC(=O)Cn1cnc2c1c(=O)n(C)c(=O)n2C)=C\c1ccco1,-14%,i
COc1cccc(CNc2nc3cc(-c4cccc(Cl)c4)sc3c(=O)n2C)c1OC,-18%,3%
COc1ccccc1CNC(=O)C(=O)NCC(c1cccnc1)N1CCN(c2ccc(F)cc2)CC1 (centres undefined),-29%,-26%
CCOc1ccccc1NC(=O)CSc1ncc(S(=O)(=O)c2ccc(C(C)(C)C)cc2)c(=O)[nH]1,-6%[7.34 µM],-11%[7.34 µM]
CSc1ccc(C2C(C#N)=C(N)Oc3c2ccc(=O)c2c(C)oc(C)c32)cc1 (centres undefined),50%[activator],/
C=CCNc1nnc(SC2CC(=O)N(c3ccc(OCCC)cc3)C2=O)s1 (centres undefined),-5%,/
O=C(NCCCN1CCCC1=O)C1CCN(S(=O)(=O)N2CCOCC2)CC1,-9%,i
CCOc1cc(Br)cc(/C=N/NC(=O)c2cccnc2)c1O,?,7.1µM*
CNC(=S)NNC(=O)Cn1ccc(C)n1,-4%,i
COC(=O)c1c(C(=O)OC)c(-c2ccc(C)cc2)n2c1CS(=O)(=O)C2,-11%,/
Cc1ccc2c(c1)N(CC(=O)NCc1cccs1)C(=O)CO2,-10%,-11%
CN[C@@H](C)C(=O)NC[C@H]1O[C@@H](n2cnc3c(N)ncnc32)[C@H](O)[C@@H]1O,-2%,i
COC(=O)C1=C(c2ccc(-c3ccccc3)c(F)c2)C[C@@H]2CC[C@H]1N2C(=O)NC1CC1,-29%,-21%
COc1ccc(Cl)cc1-c1n[nH]c(=S)n1Cc1ccccc1,-2%,-6%
O=C(CSc1ccccc1F)NC1CCS(=O)(=O)C1 (centres undefined),-12%,i
Cc1cc(C)cc(Cn2cc(CN3CC(N4CCN(Cc5ccccc5F)CC4)CS3(=O)=O)nn2)c1 (centres undefined),-10%,12%
CCOC(=O)c1ccc(N=Cc2nc3ccccc3n2C)cc1,-7%,0%
Cc1ccc(-c2noc(CSc3nnnn3C3CCCCC3)n2)cc1,-1%,5%
Cc1oc(-c2ccc(Cl)cc2)nc1Cn1c(=O)cc(C)c2c(C)nn(-c3ccccc3)c21,6%,-6%
Cn1c(N)c(C(=O)COC(=O)c2ccc(Cl)c(S(=O)(=O)N3CCCCC3)c2)c(=O)n(C)c1=O,-10%,i
CC1CN(CCCOc2ccccc2-c2ccccc2)CC(C)O1 (centres undefined),-12%,-18%

# Ordered by molar mass (smallest number first): part of the list above
SMILES,VACV Venus inh,Vaccinia mCherry
CCOC(=O)c1ccc(N=Cc2nc3ccccc3n2C)cc1,-7%,0%
Cc1ccc2c(c1)N(CC(=O)NCc1cccs1)C(=O)CO2,-10%,-11%
Cc1oc(-c2ccc(Cl)cc2)nc1Cn1c(=O)cc(C)c2c(C)nn(-c3ccccc3)c21,6%,-6%

# Entries from the list above with an aryl thioether with sulfur outside any ring, in the order listed:
SMILES,VACV Venus inh,Vaccinia mCherry
C=CCn1c(COc2cccc(C)c2)nnc1SCn1nnc2ccccc2c1=O,-9%,-20%
CCOc1ccccc1NC(=O)CSc1ncc(S(=O)(=O)c2ccc(C(C)(C)C)cc2)c(=O)[nH]1,-6%[7.34 µM],-11%[7.34 µM]
CSc1ccc(C2C(C#N)=C(N)Oc3c2ccc(=O)c2c(C)oc(C)c32)cc1 (centres undefined),50%[activator],/
C=CCNc1nnc(SC2CC(=O)N(c3ccc(OCCC)cc3)C2=O)s1 (centres undefined),-5%,/
O=C(CSc1ccccc1F)NC1CCS(=O)(=O)C1 (centres undefined),-12%,i
Cc1ccc(-c2noc(CSc3nnnn3C3CCCCC3)n2)cc1,-1%,5%

# Following part.
SMILES,VACV Venus inh,Vaccinia mCherry
Cc1ccc(S(=O)(=O)CCC(=O)Nc2nnc(-c3ccccc3S(C)(=O)=O)o2)cc1,-23%,?
CCn1c(C)nc2cc(C(=O)N/N=C(\C)c3ccc(OC)cc3O)ccc21,?,?
Cc1nc2sc(C(c3cccc(F)c3)N3CCC(C)CC3)c(O)n2n1 (centres undefined),-10%,-20%
Cc1ccc(S(=O)(=O)N2CCN(C(=O)CSc3ncn[nH]3)CC2)c(C)c1,-20%,-5%
O=C(O)Cc1csc(-c2ccc(F)cc2)n1,1%,-2%
Cc1ccc2c(c1)N=C(c1ccc(Cl)cc1)CO2,?,?
COc1ccc(Cc2[nH]n3c(=O)cc(C(C)C)nc3c2-c2ccccc2)cc1,-19%,?
CCN(CC)CCNC(=O)Cc1c(C(=O)O)n(C)c2ccccc12,6%,-3%
CC(=O)NC(c1cccc(F)c1)c1nc(-c2cccc(C(F)(F)F)c2)cs1 (centres undefined),0%,-12%
CCOc1ccc(NC(=O)C2CCCN(S(=O)(=O)c3ccc(-n4cnnn4)cc3)C2)cc1 (centres undefined),-1%,3%
CCC(=O)Nc1ccc(S(=O)(=O)Nc2c(NC)c3ccccc3oc2=O)cc1,-9%,i
C[C@H]1CN([C@@H](C)CO)C(=O)Cc2cc(NC(=O)CCC(F)(F)F)ccc2O[C@H]1CN(C)CC1CC1,-8%,i
COc1cccc(C2[C@H](C)C3(CCN2C)OCCO3)c1 (some centres undefined),-2%,0%
Cc1cccc(-c2nc(C)c(CCNC(=O)C(=O)Nc3cccc(Cl)c3C)s2)c1,5%,-3%
O=C(NCc1ccc2c(c1)OCO2)c1cc([N+](=O)[O-])ccc1N1CCCCC1,-20%,-9%
O=C(COC(=O)c1cccc(OC(F)F)c1)NC(=O)NC1CCCCC1,-9%,-17%
Cc1ccc(Cl)c(OCC(=O)Nc2cc(S(=O)(=O)N3CCOCC3)ccc2N2CCCC2)c1,-17%,-11%
Cc1ccc2c(c1)-c1c(cnn1CC(=O)N(Cc1ccco1)C1CCCCC1)CO2,-4%,i
CCOC(=O)C1(C)CCCCN1C(=O)c1cccnc1 (centres undefined),11%,8%
COCCN(C(=O)CSc1nnc(-c2ccc(C(C)(C)C)cc2)n1N)c1c(N)n(CC(C)C)c(=O)[nH]c1=O,-7%,-18%
c1ccc2c(c1)SCc1nnc(-c3ccncc3)n1-2,7%,i
COc1ccc(-c2nc(C)c(CCNC(=O)C(=O)Nc3cccc(F)c3)s2)cc1OC,-15%,-18%
CC(=O)N1CCN(C(=O)c2ccc(NS(=O)(=O)c3ccc4[nH]c(=O)[nH]c4c3)cc2)CC1,-6%,-8%
O=C(c1cccc(Br)c1)N1CCN(c2ccc(N3CCOCC3)nn2)CC1,-15%,i
COCCNC(=O)Cn1c(=O)c2cccn2c2ccc(F)cc21,-7%,-6%
C[C@@H]1CN([C@H](C)CO)C(=O)CCCn2cc(nn2)CO[C@H]1CN(C)S(=O)(=O)c1ccccc1,-3%,?
CCC(CC)C(C(=O)NCc1ccccc1)N1CCN(C(=O)C2CCCO2)CC1 (centres undefined),-9%,-8%
Cc1ccc(NC(=O)CCS(=O)(=O)c2cccc3nsnc23)c(C)c1,-11%,-7%
COc1ccccc1C(=O)NCCC(=O)Nc1ccc(OC(F)(F)F)cc1,-14%,-15%
Cc1c(NC(=O)C23CC4CC(CC(C)(C4)C2)C3)c(=O)n(-c2ccccc2)n1C,0%,-4%
Cc1cn2c(=O)c(S(=O)(=O)Nc3ccc(F)cc3F)c(C)nc2s1,-10%,-14%
O=C(Nc1ccccc1Sc1ccccc1)c1cnn2c1NC(=C1CC1)C=C2C(F)(F)F,-13%,-19%
CCCCN(Cc1ccc(Cl)c(Cl)c1)c1ccc(Br)cn1,-14%,-13%
COc1ccc(-c2c(C)c3ccc(O)c(CN4CCC(C)CC4)c3oc2=O)cc1OC,-17%,-12%
CC(=O)NCC(=O)N1CCCC(C(=O)c2ccc3c4c(cccc24)CC3)C1 (centres undefined),-9%,i
CCOC(=O)c1ccc(NS(=O)(=O)c2ccc3c(c2)oc(=O)n3C)cc1,-6%,-14%
CSC(C(=O)c1cc2ccccc2o1)c1ccccc1 (centres undefined),-1%,-12%
CN(CC(=O)NCc1ccncc1)S(=O)(=O)c1cc(Cl)ccc1Cl,3%,-13%
Cc1noc(C)c1COc1cccc(C(=O)N2CCN(C/C=C/c3ccccc3)CC2)c1,-29%,-26%
O=C(CSc1nnc2ccc(-c3cccnc3)nn12)Nc1ccc(F)cc1,-7%,-11%
CCOC(=O)c1ccc(NC(=O)Nc2cc3c(cc2N2CCCC2)n(C)c(=O)n3C)cc1,-14%,-26%
COc1cc(NC(=O)CC(C)C)ccc1NC(=O)c1ccco1,36%[activator],-14%
Cc1nnc(SC(C)C(=O)Nc2sc3c(c2C#N)CCCC3)[nH]c1=O (centres undefined),-3%,9%

# Part of the list above, with tabs:
canonical_smiles	VACV Venus inh	Vaccinia mCherry
Cc1noc(C)c1COc1cccc(C(=O)N2CCN(C/C=C/c3ccccc3)CC2)c1	-29%	-26%
COc1cc(NC(=O)CC(C)C)ccc1NC(=O)c1ccco1	36%[activator]	-14%
Cc1nnc(SC(C)C(=O)Nc2sc3c(c2C#N)CCCC3)[nH]c1=O (centres undefined)	-3%	9%
CSC(C(=O)c1cc2ccccc2o1)c1ccccc1 (centres undefined)	-1%	-12%
CN(CC(=O)NCc1ccncc1)S(=O)(=O)c1cc(Cl)ccc1Cl	3%	-13%

# Screening results as filed in PubChem BioAssay.
